Assay outcomes deposited in PubChem BioAssay by National Center for Advancing Translational Sciences (NCATS).
VACV mCherry inh: inhibitors of vaccinia virus infection (mCherry reporter signal); Vaccinia virus mCherry reporter infection, fluorescence; about a quarter of the inactives have no number; Potency, µM (titrated, usually from 36.5 µM), for inactives: top-dose activity change, negative = inhibition, most hits filed as inhibitors; 0.63% of 310,000 active; active = well fitted inhibition curve with a large enough effect; inconclusive = small, poorly fitted or top-dose-only effect; inactive = no such curve, though single readings can be large or run the other way; tested in A549 cells; further: nearly all actives have a fitted effect of over 35% in size; inactives centre near -10
VACV Venus inh: inhibitors of vaccinia virus (Venus reporter) | AID 720580 | Vaccinia virus Venus reporter expression, fluorescence | 0.46% of 330,000 active | Potency, µM (series often up to 36.5 µM), without a hit: at the highest dose activity change, negative = inhibition, hits mostly inhibitors; active means well fitted inhibition curve with a large enough effect; inconclusive means small, poorly fitted or top-dose-only effect; inactive means no such curve, though single readings can be large or run the other way; tested in A549 cells; further: nearly all actives have a fitted effect of over 30% in size; inactives centre near -10
The depositor's hits bear a star; i = inactive; ? = inconclusive; / = not tested or not shown; [ ] = dose if it differs, or a comment. On the % scale 0 is the no-effect control and ±100 the full control effect; potency means the concentration at half of the fitted maximal effect.

Value order – VACV mCherry inh | VACV Venus inh
COc1ccc(NC(=O)[C@H](C)NC(N)=O)cc1S(=O)(=O)Nc1cc(C)ccc1Br
→ -1.3% | 1.7%
CCCCCc1nn2cc(-c3ccccc3)nc2s1
→ -16.3% | -15.8%
CCOC(=O)C1=C(C)OC(N)=C(C#N)C12C(=O)N(C)c1ccccc12 (centres undefined)
→ -8.2% | 2.9%
COc1ccc(C(=O)NCCC2=CCCCC2)cc1OC
→ / | -11.7%
CCOC(=O)CSc1nc2c(c(=O)[nH]c(=O)n2C)n1CCCc1ccccc1
→ -2.0% | -9.5%
Oc1c(C(c2cccc(Cl)c2)N2CCOCC2)sc2nc(-c3ccco3)nn12 (centres undefined)
→ -13.7% | -8.3%
O=[N+]([O-])c1ccc2c(OCc3nnc(-c4ccccc4Br)o3)ncnc2c1
→ -22.5% | -19.9%
N=C1C(c2nc3ccccc3s2)=C(O)CN1Cc1ccccc1
→ ? | ?
O=C(C1CCCO1)N1CCN(C(=S)Nc2ccccc2C(F)(F)F)CC1 (centres undefined)
→ -13.9% | -9.8%
Cc1ccc(NC(=O)CCCc2nnc3n(C)c(=O)c4sccc4n23)cc1C
→ -12.8% | -0.1%
COc1cc(C(=O)OC(C)CN2CCCC2)cc(OC)c1OC (centres undefined)
→ ? | ?
O=S(=O)(c1ccc(NCc2ccccc2)cc1)N1CCOCC1
→ i | -21.1%
O=C(O)COc1ccc(-c2nccc(-c3ccccn3)n2)cc1
→ 9.5% | 2.5%
O=c1cc(N2CCCCC2)c(-c2ccccc2)nn1Cc1c(Cl)cccc1Cl
→ ? | ?
O=C(CSc1n[nH]c(=O)n1C1CC1)Nc1ccc(Cl)c(Cl)c1
→ -20.5% | -1.1%
COC(=O)C1=C/C=C\CN(C(c2ccccc2)c2ccccc2)/C=C\1C(=O)OC
→ -8.8% | -26.3%
CC(CNC(=O)Cn1ccc2cc(S(=O)(=O)N3CCCCC3)ccc21)c1ccccc1 (centres undefined)
→ -8.3% | -18.7%
CC(C)(C)n1nnnc1C(c1cccc2ccccc12)N1CCC2(CC1)C(=O)NCN2c1ccccc1 (centres undefined)
→ 9.2% | -1.7%
Cc1ccc2ccccc2c1Cn1c(-n2ccnc2)nc2c1c(=O)n(C)c(=O)n2C
→ -4.5% | -5.3%
COC(=O)c1ccc(CSc2nc3ccc(Cl)cc3[nH]2)o1
→ / | -16.0%
CC(NS(=O)(=O)c1ccc(OCC(=O)N2CCOCC2)cc1)c1ccccc1 (centres undefined)
→ / | -27.5%
Cc1ccc(S(=O)(=O)N2CCC(C(=O)OC3CCOC3=O)CC2)cc1C (centres undefined)
→ -14.9% | -7.2%
Cc1ccc2ncnc(-c3ccccc3)c2c1
→ -14.4% | -6.8%
CCSc1nnc(SCC(=O)c2c(N)n(C)c(=O)n(C)c2=O)s1
→ -14.1% | -7.1%
Cc1c(O)c(CN2CCCC2)cc2c3c(c(=O)oc12)CCC3
→ i | -3.3%
CCCn1ncc(CN2CCCC(C(=O)c3cccc(OC)c3)C2)c1C (centres undefined)
→ -10.1% | -7.9%
CCC(=O)N1Cc2ccccc2-c2ccccc2C1=O
→ / | -5.7%
COc1ccc2c(c1)c(/C=C/c1cc[n+](C)cc1)cn2C
→ ? | 28.0%
COc1ccccc1NC(=S)NCc1ccc(F)cc1
→ -17.9% | -10.8%
CCc1ccc(NC(=O)Cn2nc(SC)c(S(=O)(=O)c3ccc(OC)cc3)c2N)cc1
→ -10.9% | 0.2%
NC(=O)c1ccc(NC(=O)COC(=O)c2cc3c(s2)CCC3)cc1
→ i | -11.9%
CCCC(=O)Oc1c(Sc2ccc(Cl)cc2)c(C)nn1-c1ccccc1
→ -16.2%[7.34 µM] | -5.4%[7.34 µM]
CC(C)CNC(=O)C(=O)Nc1c2c(nn1-c1ccc(Cl)cc1)CSC2
→ ? | ?
C=CCn1c2ccccc2c2nnc(SCC(=O)Nc3cc(C)on3)nc21
→ / | -27.2%
COc1ccc([N+](=O)[O-])cc1NC(=O)C(C)OC(=O)C1c2ccccc2Oc2ccccc21 (centres undefined)
→ -3.9% | -14.5%
CCCN1C(C)C(C(=O)OCC)=CN(Cc2cccc(I)c2)S1(=O)=O (centres undefined)
→ i | -14.8%
CCN(CC)CCNC(=O)c1[nH]c2ccc(OCc3ccccc3)cc2c1C
→ ? | ?
CCC(C(=O)NC(C)CCc1ccccc1)n1nc(C)n2c(cc3occc32)c1=O (centres undefined)
→ / | -28.3%
COc1cccc(NC(=O)C2CC(=O)N(c3ccc(Br)cc3)C2)c1 (centres undefined)
→ 7.5% | -5.9%
O/C(=C\c1nc2ccccc2nc1/C=C(\O)c1ccccc1)c1ccccc1
→ -0.4% | 1.6%
Cc1cc(=O)n2nc(N3CCC(C(=O)NCc4ccco4)CC3)sc2n1
→ -17.1% | -5.9%
Cc1csc(N(C)C(=O)CSc2nnc(COc3cccc4ccccc34)o2)n1
→ -2.6% | -1.2%
CCOC(=O)N/N=C\c1ccc([N+](=O)[O-])s1
→ ? | -14.7%
CC(=O)n1c(-c2ccccc2)c(CO)c2ccccc21
→ 2.5% | -5.4%
CC(C)(C)NC(=O)C(c1ccc(-c2ccccc2)cc1)n1c(=O)c(-c2ccccc2)nc2ccccc21 (centres undefined)
→ i | -3.8%
COc1cc(C(C)=O)ccc1OCC(O)Cn1nc(C)c(Br)c1C (centres undefined)
→ -9.2% | -4.2%
O=C(CN1C(=O)NC2(CCCc3ccccc32)C1=O)Nc1cccc(S(=O)(=O)N2CCCCC2)c1 (centres undefined)
→ -5.9% | -21.3%
Cc1cc(C)n(-c2nnc(C)n2/N=C/c2ccccc2OCc2ccccc2Cl)n1
→ -8.1%[1.46 µM] | -27.1%
O=C(OCC(=O)N1CCN(C(=O)c2ccco2)CC1)c1ccccc1OCc1ccccc1
→ i | -15.0%
CCN(C(=O)COC(=O)c1ccc(Cl)c(S(=O)(=O)N2CCCCC2)c1)C1CCS(=O)(=O)C1 (centres undefined)
→ -10.7% | -14.3%
O=C(N/N=C/c1c[nH]c2ccccc12)c1ccc2c(c1)OCCO2
→ -17.7% | -27.6%
CCCCN1Cc2c(nc3cc(-c4ccccc4)[nH]n3c2=O)C1=O
→ -0.2%[7.34 µM] | -1.6%[7.34 µM]
CC(=O)N1c2ccccc2N=C(c2ccc3c(c2)OCO3)C1C(=O)NCc1ccccc1 (centres undefined)
→ -22.1% | -9.6%
Cc1ccc(NC(=O)COc2ccccc2)cc1S(=O)(=O)N1CCCCCC1
→ -13.1% | -23.6%
COc1ccc(Cl)cc1C(=O)NNC(=O)c1ccc(F)c(S(=O)(=O)N2CCOCC2)c1
→ -3.6% | -20.3%
Cc1ccc(S(=O)(=O)c2nnn3c2nc(Nc2ccc(C(C)C)cc2)c2sccc23)cc1C
→ -2.0% | ?
CN(C(=O)c1cccc(NC(=O)Cc2cccc(NC(=O)C3CCN(S(=O)(=O)c4cccc([N+](=O)[O-])c4)CC3)c2)c1)C1CC1
→ -14.1% | -14.7%
CCCC(C)(C)C(=O)N1CCC1(C)C(=O)NS(=O)(=O)c1ccc(Br)cc1 (centres undefined)
→ i | -3.6%
COc1ccc(-c2nn(-c3ccccc3F)cc2CNCCn2nc(C)cc2C)cc1
→ i | -14.7%
COC(=O)[C@H](CCSC)NC(=O)Nc1ccc(OC)c(Cl)c1
→ / | -14.0%

Continuation:
Value order – VACV mCherry inh | VACV Venus inh
O=C1COCCOCCOCC(=O)NCCN1
→ -11.8% | 0.8%
Cc1ccc(C(=O)Nc2cc(-c3cn4cccnc4n3)ccc2C)cc1C
→ -0.1% | -16.0%
COc1ccc(-c2cc3ccccc3oc2=O)cc1NC(=O)c1ccc([N+](=O)[O-])o1
→ 11.2µM* | ?
COc1ccccc1N1CCN(S(=O)(=O)CCNC(=O)c2cc(=O)c3ccccc3o2)CC1
→ -11.8% | -20.5%[7.34 µM]
Cc1cccc(OCC(=O)O/N=C(\N)c2ccncc2)c1
→ -14.9% | 1.9%
CCOc1ccc(OCC)c(S(=O)(=O)N2CCN(c3cccc(C)c3C)CC2)c1
→ -12.4% | -10.1%
Cc1cc(NC(=O)CCC(=O)N(c2cccnc2)C(C(=O)NC2CCCC2)c2ccccc2F)no1 (centres undefined)
→ -17.7% | -0.2%
O=C(NCc1cc(Cl)cc(Cl)c1)c1ccc2sc([C@@H]3O[C@H](CO)[C@H](O)[C@H](O)[C@H]3O)nc2c1
→ i | -7.2%
C[C@H](NS(=O)(=O)c1ccc2c(c1)OCCCO2)C(=O)N1CCN(Cc2ccc(C#N)cc2)CC1
→ i | -14.9%
Cn1c(=O)c2c(nc(NC3CCCCC3)n2Cc2ccccc2)n(C)c1=O
→ i | -1.4%
Cc1ccc(S(=O)(=O)CCC(=O)Oc2ccc(-c3nnco3)cc2)cc1
→ 3.5% | 0.4%
CC(/C=N/NC(=O)c1sc(N)nc1C)=C\c1ccccc1
→ i | -16.4%
CCc1ccc(NC(=O)c2ccc(NS(=O)(=O)c3c(C)noc3C)cc2)cc1
→ -7.5% | -4.8%
Cc1nc(C(N)=O)c(N)n1CCc1ccccc1
→ -14.8% | -11.3%
O=C(OCn1nnc2ccccc2c1=O)c1ccc(S(=O)(=O)N2CCOCC2)cc1
→ -11.8% | -10.7%
COc1cc(C2CC(=O)Oc3cc(C)c(Br)c(C)c32)cc(OC)c1OC (centres undefined)
→ i | -14.6%
CCC(c1nnnn1CCC(C)C)N1CCC(C(N)=O)CC1 (centres undefined)
→ -20.1% | -13.3%
CC(OC(=O)c1cccc(-n2cnnn2)c1)C(=O)Nc1ccc(F)cc1 (centres undefined)
→ -3.4% | -20.3%
COc1ccc(CN(C(C)=O)c2cc(C)c([N+](=O)[O-])cc2OC)cc1OC
→ -2.7% | -5.1%
Cc1cc(C)cc(NC(=O)CN2C(=O)NC(Cc3c[nH]c4ccccc34)C2=O)c1 (centres undefined)
→ -19.0% | -30.0%
CC1CN(C(=O)Cn2cc(SCC(=O)N3CCOCC3)c3ccccc32)CC(C)O1 (centres undefined)
→ -13.8% | 1.6%
O=C(CSc1ccccn1)NC1CCCc2c1cnn2-c1ccccc1F (centres undefined)
→ ? | -12.2%
O=C(c1cccc(Cl)c1)N1CCC2CC1c1cc(N3CCOCC3)ccc12 (centres undefined)
→ -12.6% | -7.3%
COc1ccc(OCc2cc(C(=O)NCc3cccc(C)n3)no2)c(Cl)c1
→ i | -13.1%
CC(C)NC(=O)C1C(c2ccccc2)=Nc2ccccc2N1C(=O)c1cc(Cl)cc(Cl)c1 (centres undefined)
→ ? | -15.3%
CCOc1ccc2c(c1)OC(c1ccc(C)cc1)(C(F)(F)F)NC2=O (centres undefined)
→ ? | ?
Cc1ccc(NC(=O)CSc2ccccc2NC(=O)c2cccc(Cl)c2)cc1Cl
→ -2.0% | 0.6%
COc1cc2nc(CC(C)C)n(NC(=O)c3ccccc3)c(=O)c2cc1OC
→ -14.4% | -9.7%
O=C1c2c(Cl)c(Cl)c(Cl)c(Cl)c2C(=O)N1c1nccs1
→ i | -1.1%
COc1cccc(C(c2sc3nc(C)nn3c2O)N2CCN(C(=O)c3ccco3)CC2)c1 (centres undefined)
→ -20.5% | -8.5%

Part of the list above, with tabs.
SMILES	VACV mCherry inh	VACV Venus inh
O=C(CSc1ccccn1)NC1CCCc2c1cnn2-c1ccccc1F (centres undefined)	?	-12.2%
CC(OC(=O)c1cccc(-n2cnnn2)c1)C(=O)Nc1ccc(F)cc1 (centres undefined)	-3.4%	-20.3%

Remaining list, next part:
Value order – VACV mCherry inh | VACV Venus inh
NC(=O)[C@H](Cc1cc2ccccc2s1)NC(=O)[C@@H]1CC2(CC(c3cccc(NC(=O)[C@@H]4CCC(=O)N4)c3)=NO2)CN1C(=O)c1ccccc1 (some centres undefined)
→ i | -4.7%
CCOC1=C2CN(S(=O)(=O)c3ccc(C)cc3)C(c3ccc(CC)cc3)CC2N(S(=O)(=O)c2ccc(C)cc2)C(c2ccc(CC)cc2)C1 (centres undefined)
→ -12.8% | -2.5%
O=C1CC(C2CCCO2)C(=O)N1Cc1ccccc1 (centres undefined)
→ / | ?
COc1ccc(OCC(=O)NCCNC(=O)c2cccnc2)cc1
→ -6.4% | 1.0%
COc1ccc2[nH]cc(CCn3ccc(O)c(C/C=C/c4ccccc4)c3=O)c2c1
→ -19.0% | -28.7%
Cc1c(C(c2cc(O)ccc2O)c2c(C)n(C)n(-c3ccccc3)c2=O)c(=O)n(-c2ccccc2)n1C
→ -27.8% | -15.9%
COc1ccccc1C(=O)COC(=O)/C(=C/c1ccccc1)NC(C)=O
→ i | 3.9%
COc1ccccc1CNC(=O)COc1cc(=O)n(C)c2ccccc12
→ 7.1% | 7.4%
COc1cc(NC(=O)Cn2cnc3c2c(=O)n(C)c(=O)n3C)c(OC)cc1Cl
→ -12.4% | -2.5%
CCOC(=O)COc1ccc(S(=O)(=O)NCc2ccco2)cc1
→ -21.0% | -8.9%
Cc1noc(C)c1CN(C(=S)NC1CC2CCC1C2)c1ccccc1 (centres undefined)
→ -27.3% | -21.0%
CC(C)Oc1ccc(S(=O)(=O)N2CCOCC2)cc1NC(=O)Cc1cccs1
→ ? | -13.4%
CN1C(=O)C2CN(CCc3ccccc3)CNC2N(C)C1=O (centres undefined)
→ -11.7% | -1.0%
COc1ccc(CNC(=O)Nc2ccc([N+](=O)[O-])cc2)cc1
→ ? | -22.1%
CSCCC1NC(=O)N(CC(=O)Nc2cccc(S(=O)(=O)N3CCCCCC3)c2)C1=O (centres undefined)
→ -18.7% | -7.0%
COc1ccc(OCCCC(=O)Nc2cccc(C(C)=O)c2)cc1
→ i | 7.4%

An unsorted share of the library; about 0.88% have a hit in one of these screens.
